E coli growth = inhibitors of Escherichia coli growth. OD600, 23 h; stronger effect = lower value. AID 1053175. OD600 absorbance (no concentration beside the values). 330,000 compounds, 0.21% hits;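 active = OD600 absorbance below the run mean of sample wells minus 3.6 SD, in any replicate, cut at about 0.56 in these data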;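 note: stock transfer was 300 nL into about 60 µL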
Vif TR-FRET = HIV-1 Vif–A3G interaction blockers – biochemical, TR-FRET, GST-Vif 1-94, biotin-A3G peptide, dose response retest, primary screen (AID 1117319). TR-FRET GST-Vif / biotin-A3G peptide binding; higher % means a stronger effect; test concentration not given here; strong numbers were not always called active. one-dose inhibition, %; IC50 in µM for titrated hits. 260,000 compounds, 0.57% hits;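 active = above the screen mean plus three standard deviations and confirmed in dose response; inconclusive = results disagree or hit not tested in dose response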;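 note: Vif residues 1-94 fused to GST binding biotinylated APOBEC3G peptide 110-148; 0% = full assay without inhibitor and 100% = GST in place of GST-Vif; retest series ran down from 100 µM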
HNF4A DNA FP = change in binding of human HNF4 alpha to DNA. HNF4a-FITC DNA binding, fluorescence polarization, 1 h. activity change, % at 10 µM. 360,000 compounds, 0.3% hits. AID 1224865; in the data active = activity change above about 30%, passing the limit was not always enough;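 note: controls were the assay level and a saturating level of protein; the project sought stronger binding though the title names inhibitors; some compounds called inactive have numbers as strong as hits; positive values seem to mean higher polarization but the record does not say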
Target sequence (P41235 whole entry, looked up): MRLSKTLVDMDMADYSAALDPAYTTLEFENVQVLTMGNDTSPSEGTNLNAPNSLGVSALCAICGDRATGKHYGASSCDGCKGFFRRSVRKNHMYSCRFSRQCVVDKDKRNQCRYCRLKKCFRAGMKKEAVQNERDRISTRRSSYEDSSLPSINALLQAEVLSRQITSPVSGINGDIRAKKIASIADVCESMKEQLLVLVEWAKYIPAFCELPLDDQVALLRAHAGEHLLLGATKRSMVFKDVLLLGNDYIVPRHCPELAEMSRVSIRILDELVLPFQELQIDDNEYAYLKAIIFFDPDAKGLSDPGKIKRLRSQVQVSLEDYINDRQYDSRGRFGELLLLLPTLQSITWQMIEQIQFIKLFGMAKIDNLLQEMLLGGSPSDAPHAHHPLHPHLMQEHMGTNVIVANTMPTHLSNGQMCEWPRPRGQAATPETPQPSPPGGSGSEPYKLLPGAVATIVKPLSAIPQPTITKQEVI
UCH37 DUB inh = human UCH37 deubiquitinating enzyme inhibition; inhibition, % (concentration not given with the values); 330,000 compounds, 0.33% hits; purified proteasome/UCH37, Ub-AMC cleavage fluorescence; Q9Y5K5; AID 588478;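 active = mean of two replicates above 20%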;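 note: 0% = compound-free wells with enzyme and 100% = wells lacking proteasome; stock transfer was 100 nL into about 20 µL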
Target sequence (Q9Y5K5 whole entry, looked up): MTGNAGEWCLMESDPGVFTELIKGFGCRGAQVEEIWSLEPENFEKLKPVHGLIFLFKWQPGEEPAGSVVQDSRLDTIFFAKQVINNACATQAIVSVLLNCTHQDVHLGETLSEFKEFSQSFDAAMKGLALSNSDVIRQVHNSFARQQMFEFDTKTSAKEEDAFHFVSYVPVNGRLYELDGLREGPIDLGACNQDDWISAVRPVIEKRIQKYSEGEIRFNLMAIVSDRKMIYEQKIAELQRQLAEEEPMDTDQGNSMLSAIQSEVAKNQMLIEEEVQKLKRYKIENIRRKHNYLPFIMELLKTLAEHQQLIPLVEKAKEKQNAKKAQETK
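Test system – human UCH37 enzyme supplied as purified proteasome complex · Incubation – 30 min preincubation with enzyme, 25 min cleavage at room temperature · Detection – AMC fluorescence from Ub-AMC cleavage, excitation 355 nm, emission 460 nm · Benchmarks – no-proteasome wells (full inhibition) and compound-free wells (no inhibition)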
B2AR ag = agonists of human beta-2 adrenergic receptor inducing internalization; 340,000 compounds, 0.43% hits; Am2.2-beta2AR cells, FAP receptor internalization, flow cytometry; reference of the scale not given here; response, % (no concentration beside the values); P07550;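 active = response above a set limit, near 3 SD of response in nonfluorescent compounds, cut at about 42% in these data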;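 note: stock transfer was 100 nL into about 11 µL; a reference agonist was the positive control; negative values mostly stem from fluorescent compounds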
A1 inh = inhibitors of the anti-apoptotic protein A1, read as caspase activation; MEF A1-2A-BIM cells, Caspase-Glo 3/7 luminescence, 3 h; percent of clofoctol response, vehicle zero; AID 2462; 330,000 compounds, 0.066% hits; caspase activation, % (concentration not given with the values);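 active = over half of replicate activation scores above 10%, or exactly half above 10 with the replicate mean above 10; inconclusive = replicate mean below 10 yet half the replicates above 10; inactive = over half of replicates below 10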;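 note: wells of about 30 µL received 50 nL stock; many hits fall short of the cut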
LANA-H2B inh = blocks KSHV LANA binding to histone H2A/H2B. Q9QR71. 320,000 compounds, 0.6% hits. inhibition, % (no concentration beside the values). cell-free LANA-H2A/H2B peptide, fluorescence polarization; in the data active = inhibition mostly above about 10%, no sharp cut-off; inactive = mostly below about 6.7%;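 note: stock transfer was 7.5 nL into about 10 µL; 0% = median of vehicle wells and 100% = median of positive control wells; one replicate is shown; the record names a cut of 25% in any replicate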
* = called active by the depositor; ? = inconclusive; . = no result given.

SMILES	E coli growth	Vif TR-FRET	HNF4A DNA FP	UCH37 DUB inh	B2AR ag	A1 inh	LANA-H2B inh
CCN(CC)S(=O)(=O)c1ccc(OC)c(NC(=O)c2ccc(=O)[nH]c2)c1	0.64	10.3%	0.4	1.8	-5.8	1.0	-1.2
C/C(=N/NS(=O)(=O)c1ccccc1)c1c[nH]c2ccccc12	.	.	1.5	.	9.1	0.9	-6.0
CC(=O)Nc1ccc(NS(=O)(=O)c2cc([N+](=O)[O-])ccc2C)cc1	0.71	9.6%	4.9	3.2	0.4	-0.7	-3.2
COc1ccc(-c2ccc(CCC(=O)O)n2NC(=O)c2cccs2)cc1	0.758	12.6%	-3.3	-0.3	-3.4	-0.3	0.8
Cc1cccc(N=C2NC(=O)/C(=C/c3cccs3)S2)c1	0.736	-2.1%	3.0	6.1	29.8	-2.0	-3.0
CCOc1ccc(NC(=O)CN(C)C(=O)c2ccc(-c3ccc(C(C)=O)cc3)o2)cc1OCC	0.682	-6.8%	3.0	-10.5	4.7	-0.4	2.3
COc1cc2c(cc1OC)CN(C(C)C(=O)Nc1ccc(NC(C)=O)cc1)CC2 (stereo not drawn)	0.682	8.8%	0.7	0.2	3.3	-0.1	6.4
CC(C)Cn1c(N)c(C(=O)COC(=O)[C@H](C)NC(=O)c2ccccc2Cl)c(=O)n(C)c1=O	0.668	2.9%	2.2	5.6	10.0	-0.1	-1.9
COc1ccc(CN=C2NC(=O)CC(C(=O)Nc3ccc(Cl)cc3)S2)cc1 (stereo not drawn)	0.668	.	-4.7	4.7	3.8	-0.4	1.2
CCOc1ccc(CN2CCNC(=O)C2CC(=O)NCCc2nc(C)c3c(n2)CCC3)cc1 (stereo not drawn)	0.709	.	-1.3	-3.2	-4.2	.	.
Cc1ccc(NC(=O)c2ccc(C)c(S(=O)(=O)N3CCOCC3)c2)nc1	.	.	2.8	.	5.0	-0.1	0.7
CCn1c(CN2CCCCCC2=O)nnc1SCc1cnc(-c2ccccc2)s1	0.711	-3.9%	7.2	3.3	-5.3	0.0	-1.8
COc1ccc(OC)c(NC(=O)CN2C(=O)C(C)N(c3ccc(C)cc3)C2=O)c1 (stereo not drawn)	0.711	-13.5%	-2.0	4.5	12.4	0.4	-0.3
CCn1c(SCC(=O)Nc2ccccc2C(=O)OC)nnc1-c1ccc(N)cc1	0.695	-9.4%	2.5	0.8	13.1	-0.1	-1.6
O=C(CSc1nnc(CNC(=O)c2c(F)cccc2Cl)o1)NCCc1ccccc1	0.665	.	5.4	6.9	-5.7	0.9	-3.2
Cc1cccc(C)c1N1CCN(S(=O)(=O)N(C)C)CC1	0.658	6.1%	3.8	4.0	-1.2	0.0	3.0
COC(=O)C1=C(C)NC(=S)N(C(C)=O)C1c1ccccc1 (stereo not drawn)	0.794	1.8%	1.7	7.0	3.6	0.9	-4.6
COC(=O)CN(c1nc(C)cc(OC)n1)S(=O)(=O)c1ccccc1	0.667	-1.1%	0.9	.	12.8	.	.
Cc1ccc(NC2CCCN(C(=O)CCn3nccc3C)C2)cc1C (stereo not drawn)	0.748	.	3.6	5.2	-4.8	-0.4	5.8
CC1Oc2ccccc2N(CC(=O)NCc2ccccc2)C1=O (stereo not drawn)	0.66	1.0%	0.9	-2.2	8.3	-1.5	-195.7
CCCOc1ccc(S(=O)(=O)Nc2ccccn2)c2ccccc12	0.699	.	1.4	-42.6	2.4	0.6	-1.6
CCC1(CC)NC(=O)N(CC(=O)OCC(=O)NC(=O)c2ccccc2OC)C1=O	0.692	-13.8%	0.5	3.0	0.7	0.3	1.5
CCN1C(=O)[C@@H]2[C@H](C1=O)[C@@H]1C(=O)Nc3ccccc3C(=O)N1[C@@H]2c1ccc(Br)cc1	.	.	1.5	-1.2	0.3	0.3	4.3
CC(/C=C/c1cccc([N+](=O)[O-])c1)=N/NC(=O)c1cccnc1	.	.	3.5	.	1.1	-0.1	-2.3
CCOC(=O)c1c2n(c3c(NCc4ccccc4)ncnc13)CCCC2	0.661	-4.4%	-5.0	0.4	-0.9	0.8	-1.1
O=C1N/C(=N/O)S/C1=C/c1cccnc1	0.72	.	-3.5	10.1	1.4	-0.4	1.7
CCOC(=O)Cn1nc(C)c(NC(=O)COc2ccc(C)c(C)c2)c1C	0.69	-2.3%	2.7	1.8	-2.8	0.3	4.6
CC(NC(=O)c1ccc(F)cc1)C1CC2CCC1C2 (stereo not drawn)	0.683	-2.8%	-0.4	0.5	4.9	-0.3	-0.5
NS(=O)(=O)c1ccc(CCNC(=O)C(=O)NCC2OCCN2S(=O)(=O)c2cc(F)ccc2F)cc1 (stereo not drawn)	0.745	.	-3.3	5.1	-3.3	0.5	2.4
O=C(CSc1nnc(COc2ccc3c(c2)CCCC3)o1)Nc1ccc(F)cc1	0.677	0.2%	-0.3	3.3	5.8	0.2	8.5
Cc1ccc(C)c(S(=O)(=O)NC(Cc2c[nH]c3ccccc23)C(=O)O)c1 (stereo not drawn)	0.679	-5.8%	4.8	1.9	-3.9	-0.1	0.8
O=C(O)CC(c1ccc(C(F)(F)F)cc1)N1Cc2ccccc2C1=O (stereo not drawn)	0.68	-5.3%	9.4	2.4	-2.7	0.6	6.1
COc1ccccc1N1CCN(C(=O)c2ccccc2NC(=O)C2CCCCC2C(=O)O)CC1 (stereo not drawn)	0.669	.	0.8	4.0	2.1	1.2	1.6
O=C(O)COc1ccccc1/C=N/NC(=O)CNC(=O)c1ccc(F)cc1	.	.	-2.1	.	1.2	1.2	-1.3
CC(/C=C1\SC(=S)N(NS(=O)(=O)c2ccccc2)C1=O)=C\c1ccccc1	0.678	-6.4%	-8.5	8.8	12.8	0.0	-0.5
Cc1cccc(NNC(=O)C(=O)NNc2cccc(C)c2)c1	0.684	-7.1%	3.6	3.3	3.0	1.6	-2.3
COc1ccc(-c2[nH]ncc2CNC(C)c2cn(C)nc2C)c(F)c1 (stereo not drawn)	0.684	1.1%	-2.8	-0.9	2.2	-0.3	0.7
Cc1ccc(/C=N/NC(=O)c2ccc(-c3ccccc3)cc2)o1	.	.	-1.8	.	1.4	-0.4	-0.7
CN(C(=O)COC(=O)c1sc2ccccc2c1Cl)C1CCCCC1	0.71	24.4%	0.5	0.9	3.7	-1.5	0.9
O=C(Nn1cnnc1)c1cc2c(s1)CCCC2	0.689	6.4%	-2.1	3.4	7.2	-0.2	1.1
CN1CCN(c2ccccc2NS(=O)(=O)c2ccc3c(c2)CCN3C(=O)C2CCC2)CC1	0.663	.	.	2.8	.	1.3	-1.3
COc1nnc(-c2ccc(N3CCCCC3)c(NC(=O)COc3ccccc3)c2)c2ccccc12	0.711	.	-0.1	-2.6	-14.4	.	.
Brc1ccc2nc(N3CCCC3)sc2c1	0.714	.	0.6	0.8	0.8	-5.2	0.7
O=C(CNC(=S)N(Cc1ccccc1)Cc1cccnc1)NC1CCCC1	0.637	2.6%	-2.6	2.9	-1.0	0.1	2.0
CN(C)C(=O)CCc1ccc2c3c([nH]c2c1)[C@]1(C)[C@@H](C(=O)N2CCOCC2)C[C@H](CC(=O)NCCCn2ccnc2)C(=O)N1CC3	0.715	-4.2%	3.8	0.4	-1.3	.	.
O=C(Nc1ccc(N2CCN(Cc3ccccc3)CC2)cc1)c1ccco1	0.662	2.1%	-1.2	-0.6	-14.6	-0.2	-2.5
O=[N+]([O-])c1ccc(-c2nc(NCc3cccnc3)c3ccccc3n2)cc1	0.674	-0.8%	-6.6	1.1	-3.8	0.5	-1.5
COCCNC(=S)Nc1cccc2cnccc12	0.705	.	10.4	-0.7	2.1	0.0	1.0

Shown bar-delimited: 2 of the compounds above
Compound | E coli growth | Vif TR-FRET | HNF4A DNA FP | UCH37 DUB inh | B2AR ag | A1 inh | LANA-H2B inh
O=C(CNC(=S)N(Cc1ccccc1)Cc1cccnc1)NC1CCCC1 | 0.637 | 2.6% | -2.6 | 2.9 | -1.0 | 0.1 | 2.0
CN(C)C(=O)CCc1ccc2c3c([nH]c2c1)[C@]1(C)[C@@H](C(=O)N2CCOCC2)C[C@H](CC(=O)NCCCn2ccnc2)C(=O)N1CC3 | 0.715 | -4.2% | 3.8 | 0.4 | -1.3 | . | .

Further compounds
SMILES	E coli growth	Vif TR-FRET	HNF4A DNA FP	UCH37 DUB inh	B2AR ag	A1 inh	LANA-H2B inh
CN1CCc2[nH]c3ccc(C(=O)NN)cc3c2C1	0.66	18.8%	1.0	4.5	6.7	0.1	-5.2
CCOc1ccc(C(=O)C(CN2CCOCC2)c2ccccc2)cc1 (stereo not drawn)	0.659	-1.3%	-1.0	6.7	-1.1	-0.8	.
O=C(NC1CCCc2ccccc21)c1ccccn1 (stereo not drawn)	0.672	31.1%	4.4	4.8	-6.5	0.8	0.7
COc1ccc(-c2ccc3c(=O)cc(-c4ccsc4)oc3c2)cn1	0.665	.	62.8*	-39.2	5.0	1.1	-6.6
COc1ccc(NC(=O)CN(C)C(=O)CSCc2ccc(C)cc2)cc1	0.666	-5.9%	0.0	-2.4	-3.9	-0.1	0.6
CCOC(=O)C1=C(c2ccccc2)NC(SC)=C(C#N)C1c1ccco1 (stereo not drawn)	0.728	30.0%	0.7	1.6	8.8	-1.1	-2.1
Cc1c(NC(=O)Nc2cccc(F)c2)c(=O)n(-c2ccccc2)n1C	0.719	-0.5%	1.3	0.1	-8.4	0.3	3.7
COc1ccc(N2CC(C(=O)Nc3ccccc3N3CCCC3)CC2=O)c(OC)c1 (stereo not drawn)	0.663	5.0%	1.4	1.7	-5.5	?	2.8
CSc1nc(-c2ccco2)nn1C(=O)c1ccco1	0.759	-1.2%	-1.2	-1.4	5.4	-0.2	-4.8
COc1cccc(OCC(=O)Nc2ccccc2NC(C)=O)c1	0.678	-0.5%	0.3	3.0	.	0.2	14.4
COc1ccc(CC(=O)N(CCC2=CCCCC2)c2c(N)n(Cc3ccccc3)c(=O)[nH]c2=O)cc1OC	0.703	2.0%	1.4	4.9	-9.9	-0.2	3.8
COc1ccccc1NC(=O)Cn1cncc1-c1ccc([N+](=O)[O-])cc1	0.713	-1.9%	0.2	5.7	-5.2	2.1	3.4
CC(C)CN1C(=O)c2ccccc2C1(O)Cc1ccccc1 (stereo not drawn)	0.723	-4.7%	0.1	-2.7	6.4	-0.8	0.5
COC(=O)CSc1ncnc2c(C)csc12	0.707	-2.2%	9.9	2.3	-1.5	0.2	0.2
Cc1noc(C)c1C(=O)Nc1ccc2c(c1)CCC2	0.67	0.8%	1.4	2.9	-0.7	-1.7	1.1
O=C(O)CCc1ccc(-c2cccs2)n1NC(=O)c1ccccc1Br	0.689	3.7%	0.6	3.4	-2.2	0.4	-1.3
COc1ccc(C(=O)O/N=C(/c2cccs2)C(C)(C)C)cc1	.	-1.4%	3.0	.	2.2	0.1	0.8
O=C(Nc1ccc(N2CCCCCC2)cc1)c1ccc[nH]1	0.685	2.3%	5.3	2.7	2.8	-3.4	.
O=c1[nH]c2ccccc2c(O)c1O	0.683	8.0%	-1.2	-40.1	2.4	-1.6	0.5
C=CC[C@@]12C=C(OC)C(=O)C(OC)=C1O[C@H](c1ccc3c(c1)OCO3)[C@H]2C	0.706	.	0.9	4.6	-4.1	-0.3	1.2
Cc1ccccc1CSc1nccn1-c1ccccc1	0.768	-2.8%	1.3	2.0	5.0	0.3	0.3
CCOC(=O)N1CCN(c2c(NCCCN(CC)c3cccc(C)c3)c(=O)c2=O)CC1	0.726	2.5%	0.5	1.6	-10.0	0.5	-1.8
CCOc1ccc(-c2cc(C(=O)N3CCCC3)c3ccccc3n2)cc1	0.679	.	-0.2	-345.0	2.2	0.9	-0.2

Bioassay records (PubChem)
